High-throughput results deposited in PubChem by several laboratories.
Bead autofluor = flagged as autofluorescent in microsphere protease counterscreen | 360,000 tested, 3.1% active | fluorescence intensity (concentration not given with the values) | compound autofluorescence counterscreen, microsphere flow cytometry; stronger effect = higher value | AID 624483;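 active means at least 3 SD above the mean of all compounds, about 16000 in these data; inconclusive means too few beads counted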;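 further: 100 nL of 1 mM stock went into each well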
Mtb hypoxia rep = reduces hypoxia-regulated biosensor signal in M. tuberculosis; 300,000 tested, 0.1% active; AID 1159583; M. tuberculosis hypoxia-regulated fluorescent reporter, fluorescence; fluorescence inhibition, % (test concentration not listed);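 active means 35 to 45% if threefold the growth effect, above 45% if 1.5-fold the growth effect; inactive means the rest, general growth blockers included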;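 further: wells of about 50 µL received 100 nL stock; 0% = vehicle wells and 100% = reference inhibitor wells; whole bacteria with a GFP reporter of the hypoxia response; strong numbers were not always called active; many hits fall short of the cut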
Sa ugtP lethal = compounds lethal to S. aureus RN4220 ugtP deletion mutant | growth inhibition, % (no concentration beside the values) | 330,000 tested, 0.54% active | AID 1259309 | OD600 growth, 16 h; some inactives read as strong as hits;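 active means z-score under -3 and OD600 up to 0.15 on both plates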;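 further: plate controls were untreated wells for no effect and antibiotic for full effect; wells of about 80 µL received 100 nL stock; the first replicate is given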
Sa RN4220 lethal = kills Staphylococcus aureus RN4220; S. aureus RN4220 growth, OD600, 16 h; inhibition, % (concentration not given with the values); 330,000 tested, 0.33% active;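 active means z-score of -3 or lower and OD600 up to 0.18 on both plates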;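 further: plate controls were untreated cells for no effect and reference antibiotic for full effect; stock transfer was 100 nL into about 80 µL; one replicate is shown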
BJeLR viability = kills HRASV12-expressing BJeLR cells | BJeLR (HRASV12) viability, CellTiter-Glo ATP luminescence, 48 h; reference of the scale not given here | inhibition, % (test concentration not listed) | 300,000 tested, 0.17% active | AID 1554;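 active means replicate mean above 50%; inconclusive means above 50% but judged a plate artefact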;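 further: 50 nL library stock added to about 25 µL; numbers are from one replicate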
PrP UTR inh = suppresses PrP 5' UTR mRNA reporter expression; cell-based PrP 5' UTR mRNA reporter, plate reader; AID 488862; 340,000 tested, 0.35% active; inhibition, % (concentration not given with the values);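 active means every replicate at 50% or more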;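 further: 0 = median of the neutral control wells; tested in H4 reporter cells; numbers are from one replicate; inactives centre near -14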
Mtb hypoxia rep growth = second read-out of Mtb hypoxia rep, no call of its own (marks repeat the call); growth inhibition, %; measured here: M. tuberculosis growth (absorbance);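 0% = vehicle and 100% = reference antibiotic; read after six days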
An asterisk follows results filed as active; ? = inconclusive; nt = no result given; & = joins results of further samples.

nr | canonical_smiles | Bead autofluor | Mtb hypoxia rep | Mtb hypoxia rep growth | Sa ugtP lethal | Sa RN4220 lethal | BJeLR viability | PrP UTR inh
1 | CCOC(=O)c1ccc(N2C(=O)C(CC(=O)NC)N(CCc3ccc(OC)c(OC)c3)C2=S)cc1 (stereo unspecified) | 4459 | -5.9 | 7.1 | 6.2 | 3.0 | -0.2 | -13.8&-8.2
2 | COc1ccc(C)cc1NC(=O)NC(C)c1ccc2c(c1)OCO2 (stereo unspecified) | 6031 | -5.0 | 6.8 | -2.2 | -0.1 | -7.6 | -5.7
3 | COc1ccccc1CNC(=O)c1cc(C)nc2ccccc12 | 5980 | -13.9 | -7.3 | 2.4 | 2.5 | -4.6 | -9.5
4 | COc1ccc(C(=O)N2C(=O)c3ccc(N)cc3C2=O)cc1 | 3932 | -1.6 | -1.7 | 5.8 | -3.7 | -5.6 | -45.8
5 | CCc1ccc(NC(=O)CSc2nc(NS(=O)(=O)c3ccccc3)cc(=O)[nH]2)cc1 | 2659 | 11.2 | 4.1 | 13.2 | -4.2 | -1.7 | -10.0
6 | Cc1cc(NC(=O)/C=C/c2ccccc2Cl)no1 | 2192 | 1.4 | 0.1 | 4.4 | 0.9 | 1.5 | -118.4
7 | O=[N+]([O-])c1cc([N+](=O)[O-])c(Oc2cccc3c2CCCC3)cc1NN1CCCCC1 | 2948 | 19.7 | 9.1 | 0.7 | 3.1 | nt | 6.5
8 | CC1CCCC(C)N1C(=O)CSc1nnc(COc2cccc3cccnc23)o1 (stereo unspecified) | 2340 | 9.8 | 15.3 | 9.8 | 6.1 | 1.3 | -14.0
9 | Cc1cccc(-c2noc(CCC(=O)NCC3CCCO3)n2)c1 (stereo unspecified) | 23287* | 14.0 | 1.9 | 5.8 | 3.6 | 0.3 | -29.6
10 | O=C(CNC(=O)c1ccco1)OCc1cccc(Cl)c1 | 4240 | -0.8 | 0.1 | 1.3 | 3.1 | 5.1 | -8.9
11 | Cc1cc(C=Nn2cnnc2)c(C)n1-c1ccc2ncccc2c1 | nt | 20.0 | 10.2 | 5.3 | 4.4 | nt | nt
12 | CC(C)(C)c1ccc(C(=O)NCCCn2ccnc2)cc1 | 3820 | nt | nt | nt | nt | 1.6 | -38.8
13 | O=C(NCc1ccc(F)cc1)c1cccc(NC2=NC3CS(=O)(=O)CC3S2)c1 (stereo unspecified) | 4538 | 3.6 | 2.2 | 1.5 | 8.6 | -11.1 | -15.7
14 | CC(C)(C)NC(=O)CSc1ncnc2c1nnn2Cc1ccccc1Cl | 4480 | nt | nt | 12.8 | -10.3 | -1.3 | -13.9
15 | Cc1ccccc1NC(=O)Cc1ccccc1 | 8870 | -6.0 | 1.5 | 3.3 | -0.5 | -14.8 | -48.3
16 | NCCc1nnc(SCc2ccccc2F)o1 | 9825 | 1.1 | 8.3 | -12.4 | 8.3 | 4.4 | -12.7
17 | COC(=O)c1c(S(N)(=O)=O)c2ccccc2n1C | 21700* | -0.6 | -0.3 | 2.2 | 3.7 | -7.5 | -3.2
18 | O=C(CSc1nc2cc3ccccc3cc2[nH]1)Nc1ccc(F)cc1 | 23788* | 7.4 | 6.4 | -18.4 | -5.9 | -1.3 | -21.5
19 | C=CCc1ccc(OCCCCCN2CCOCC2)c(OC)c1 | 2341 | nt | nt | 4.2 | 3.2 | -3.4 | -4.0
20 | COCCNC(=O)CN1N=C(c2ccc(C)cc2)CCC1=O | 3802 | 15.6 | 7.5 | 14.0 | 0.5 | 6.0 | -17.6
21 | CCOc1nc(N2CCOCC2)nc(N2CCOCC2)n1 | 9153 | 4.0 | 9.8 | 14.8 | 4.4 | 1.6 | -14.8
22 | CC(C)(C)NC(=O)CN(C(=O)c1csnn1)c1cccc2c1CCCC2 | 4605 | -2.0 | 5.0 | -5.6 | 3.7 | -1.0 | -47.0
23 | COCCN(C(=O)c1csnn1)C(C(=O)NC1CCCCC1)c1ccccc1F (stereo unspecified) | 3694 | 2.6 | -7.8 | 10.4 | 0.6 | 1.5 | -23.7
24 | CCCCCCOc1ccc(N2C(=O)CC(SC(=NCC)NCC)C2=O)cc1 (stereo unspecified) | 5299 | 3.3 | -2.8 | 1.3 | -1.8 | 5.3 | -18.3
25 | Cc1n[nH]c(C)c1CCCCOc1ccccc1 | 4658 | 15.1 | 6.8 | -6.2 | 7.9 | 0.6 | -24.0

An excerpt from above in order of length of the SMILES, ascending:
nr | canonical_smiles | Bead autofluor | Mtb hypoxia rep | Mtb hypoxia rep growth | Sa ugtP lethal | Sa RN4220 lethal | BJeLR viability | PrP UTR inh
6 | Cc1cc(NC(=O)/C=C/c2ccccc2Cl)no1 | 2192 | 1.4 | 0.1 | 4.4 | 0.9 | 1.5 | -118.4
4 | COc1ccc(C(=O)N2C(=O)c3ccc(N)cc3C2=O)cc1 | 3932 | -1.6 | -1.7 | 5.8 | -3.7 | -5.6 | -45.8
23 | COCCN(C(=O)c1csnn1)C(C(=O)NC1CCCCC1)c1ccccc1F (stereo unspecified) | 3694 | 2.6 | -7.8 | 10.4 | 0.6 | 1.5 | -23.7

Next part.
nr | canonical_smiles | Bead autofluor | Mtb hypoxia rep | Mtb hypoxia rep growth | Sa ugtP lethal | Sa RN4220 lethal | BJeLR viability | PrP UTR inh
26 | O=C(O)c1cccnc1SCC(=O)C12CC3CC(CC(C3)C1)C2 | 4668 | 3.7 | 0.2 | 9.6 | 2.2 | -2.4 | -11.0
27 | CC(=O)Nc1cccc(NC(=O)CCN2C(=O)c3ccccc3S2(=O)=O)c1 | 5343 | -4.9 | -3.0 | 3.3 | 3.1 | 1.5 | 5.0
28 | COc1ccc(C)cc1NC(=O)c1nn(C)cc1Br | 6231 | -2.1 | -3.1 | -3.5 | -2.4 | 5.5 | -11.8
29 | CN1CCN(CC(=O)Nc2sc3c(c2C(=O)Nc2ccccc2)CCCC3)CC1 | 5504 | 6.7 | 5.4 | 2.7 | -0.2 | -1.7 | 4.8
30 | CCN(CC)CCSc1nnc2c3ccccc3n(Cc3ccccc3)c2n1 | 4833 | 7.2 | 4.3 | -5.2 | 2.0 | 10.5 | -9.3
31 | O=C(CN(c1ccccc1)S(=O)(=O)c1ccc(F)cc1)NC1CCCCCC1 | 5334 | -0.7 | -0.5 | -3.0 | -0.5 | -1.7 | -13.7
32 | CCc1ccccc1Nc1nc(N)nc(COC(=O)C2=COCCO2)n1 | 2882 | -4.7 | -18.7 | 2.4 | 0.1 | nt | -11.1
33 | CC(C)N(C(=O)c1ccccc1-c1ccccc1)C(C)C | 5051 | nt | nt | -3.5 | 10.6 | -5.9 | -24.7
34 | CCC(Oc1ccccc1OC)C(=O)Nc1ccc2c(c1)OCCO2 (stereo unspecified) | 3490 | nt | nt | nt | nt | 1.3 | -16.4
35 | O=C(Nc1cc2c3c(c1)CC(=O)N3CCC2)c1ccccc1F | nt | -14.8 | 2.0 | -0.8 | 1.4 | -6.6 | 2.4
36 | CCCN1CCC(=O)N(C(COc2ccccc2)CC(C)C)CC1 (stereo unspecified) | nt | 7.1 | 7.6 | 0.0 | 3.5 | nt | nt
37 | Cc1ccccc1N1CCN(C(=O)C2CCCCC2)CC1 | 3683 | nt | nt | 2.7 | 12.9 | 3.0 | -15.3
38 | Cc1cc(=O)oc2c1ccc1oc(/C(=N/O)c3ccccc3)c(C)c12 | 9300 | nt | nt | nt | nt | 9.4 | 24.9
39 | CCN(CC(=O)NCc1ccc(Cl)cc1)S(=O)(=O)c1ccc(NC(C)=O)cc1 | 4430 | 3.4 | 5.4 | 10.9 | 3.7 | 4.5 | 1.9
40 | O=C(NCc1cccnc1)C1CCN(C(=O)c2ccc(Cl)cc2Cl)CC1 | 3026 | -5.4 | 3.0 | 3.6 | 2.0 | -0.4 | -17.4
41 | O=C(CCCCCn1c(=S)[nH]c2ccc(N3CCOCC3)cc2c1=O)NCc1ccccc1Cl | 4039 | -3.3 | 2.5 | 2.7 | -5.2 | -1.6 | -13.7
42 | O=c1c(Cc2ccccc2)c(O)c2cccc3c4c(n1c23)CCCC4 | 5680 | -8.5 | 9.2 | -12.2 | 15.1 | -0.7 | -8.5
43 | COc1ccc(-c2cc3ccccc3n2CC(O)CN2CCC(C)CC2)cc1 (stereo unspecified) | 5208 | nt | nt | 10.2 | -1.7 | 2.6 | 3.1
44 | Cc1ccc(S(=O)(=O)NC2CCCCCCC2)cc1 | 3453 | 2.1 | 10.0 | 7.1 | 5.1 | -2.6 | -12.9
45 | COc1ccc(C2(C)NC(=O)N(CC(=O)Nc3ccc(Br)cc3F)C2=O)cc1OC (stereo unspecified) | 5320 | -0.2 | -0.3 | -0.7 | -1.1 | 16.5 | -18.2
46 | COc1ccc(C2CC(c3cccs3)=NN2C(=O)c2ccc(Br)o2)cc1 (stereo unspecified) | 2316 | -9.0 | -8.7 | -3.5 | -4.0 | 6.9 | -0.9
47 | CCOC(=O)C1=C(COC(=O)c2sccc2C)NC(=O)NC1C (stereo unspecified) | ? | -0.1 | -2.7 | 8.4 | 7.1 | nt | -2.6
48 | CCCCN(C(=O)COc1ccc(NC(C)=O)cc1)C1CCS(=O)(=O)C1 (stereo unspecified) | 3068 | 11.9 | 8.9 | 3.7 | 2.3 | 2.7 | -13.0
49 | O=C(CSc1ccccc1)Nc1ccc(N2CCN(c3ccccc3)CC2)c(F)c1 | 2789 | nt | nt | -0.5 | 2.5 | 1.6 | -15.8
50 | Cc1ccc(C)n1NC(=O)c1ccc(O)cc1 | 5905 | 9.4 | 8.8 | 2.9 | 1.0 | 3.6 | -14.6
51 | O=C(CSc1nc2ccccc2s1)NCC1CCCO1 (stereo unspecified) | 3987 | 5.4 | 3.9 | 3.9 | 4.1 | -0.4 | -14.7
52 | CN(C)c1ccc(C(=O)OCC(=O)c2cccs2)cc1 | 2572 | 11.9 | 3.9 | 4.3 | 7.0 | -24.8 | -109.8
53 | CCOC(=O)N1CCN(C(=O)CSCC(=O)Nc2nc(-c3ccccc3)cs2)CC1 | 23127* | -6.5 | 3.2 | 4.7 | 1.0 | 2.6 | 7.9
54 | CCN1CCN(C(=O)COc2ccc(S(=O)(=O)Nc3ccc(Cl)cc3)cc2)CC1 | 4295 | -0.4 | -6.8 | 6.6 | 6.0 | 1.5 | -24.8
55 | Cc1nn(C(C)C(=O)NCc2ccccc2)c(C)c1[N+](=O)[O-] (stereo unspecified) | 6329 | -3.6 | 15.9 | -2.5 | 0.7 | -2.2 | -18.8
56 | CCCOC1CCCN(C(=O)CCCn2nnnc2CN2CCOCC2)C1 (stereo unspecified) | 4369 | 1.6 | -4.6 | -0.4 | -0.4 | 5.4 | -23.0
57 | CSCC[C@H](N)C(=O)NC[C@H]1O[C@@H](n2cnc3c(N)ncnc32)[C@H](O)[C@@H]1O | 3831 | 2.9 | 5.7 | 9.8 | 3.0 | nt | 0.9
58 | Cc1cccc(C)c1NC(=O)CNC(=O)Cc1ccccc1[N+](=O)[O-] | 4994 | -3.2 | -3.3 | 4.3 | 9.8 | 0.5 | -29.4
59 | CSCC[C@H](NC(=O)CCn1nnc2ccccc2c1=O)C(=O)O | ? | 1.6 | 4.8 | -8.1 | 3.7 | 15.4 | -22.6
60 | CCCC=C1CCCOC(C(=O)NCCNCCO)(C(F)(F)F)C1 (stereo unspecified) | nt | 17.2 | 5.9 | 2.5 | 6.4 | nt | nt
61 | N#Cc1ccccc1Cn1c(=O)n(-c2ccc(CC(=O)NCc3ccco3)cc2)c(=O)c2sccc21 | 5851 | 7.5 | 1.9 | 10.2 | -1.5 | -3.3 | -34.4
62 | CCOC(=O)C1CCN(C(=O)c2sccc2Cl)CC1 | 6943 | 17.8 | 4.5 | 3.1 | 5.6 | -5.5 | -21.4
63 | CC(=O)c1cnc2cc(-c3ccc(Cl)cc3)nn2c1C | 2382 | nt | nt | -0.5 | -3.3 | -4.6 | -62.3
64 | Cc1cc(C)n2nc(SC(C)C(=O)NC3CCCCC3C)nc2n1 (stereo unspecified) | nt | 11.1 | -9.2 | 7.8 | 3.4 | -4.6 | -46.8
65 | CCOC(=O)c1ccc(CSc2ncn[nH]2)o1 | 4397 | 8.1 | 4.3 | 9.6 | 2.7 | 1.4 | 12.7
66 | Cc1ccc(NC(=O)CSc2ncc3ccccn23)cc1C | 4433 | 4.0 | 14.7 | 4.7 | 2.3 | -13.2 | -38.8
67 | COc1ccc(S(=O)(=O)N2CCc3ccccc32)cc1C(=O)NCC(c1ccco1)N1CCCC1 (stereo unspecified) | 2888 | -11.3 | -6.8 | 3.3 | 2.6 | nt | -23.0
68 | Cc1cc(S(=O)(=O)N2CCOCC2)ccc1OCC(=O)N1CCCC1 | 3507 | 11.5 | 5.3 | 1.3 | 0.3 | 3.7 | -7.1
